Six1-Eya2 blk: Six1/Eya2 interaction inhibition; Q15475+O00167; AlphaScreen GST-Six1/His-Eya2 binding, biochemical; stronger effect = lower value; control for the full effect not named in the record; activity change, % (no concentration beside the values); actives 0.56% (n = 360,000); AID 651725; in the data active = activity change below about -65%; inconclusive = about -30% to -65%; inactive = above about -30%; also: % is scaled to controls: 0 for no effect and ±100 for the full control effect; compound concentration not given in the record
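GST-Six1 + His-Eya2 (5X stock: 250/500 nM); Tris pH 8.0, 300 mM NaCl, 0.05% BSA, 0.02% Tween 20; GSH donor/Ni acceptor beads; 1 h 37 °C dark; AlphaScreen readout.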
gsp ag: activates gsp, the McCune-Albright syndrome mutation; gsp mutant cells, cAMP HTRF, 30 min; control for the full effect not named in the record; Potency, µM (titrated, usually from 76.9 µM), for the others: at the highest dose activation (cAMP increase), actives largely listed as activators; actives 0.13% (n = 340,000); AID 624287; active = well fitted activation curve with a large enough effect; inconclusive = small, poorly fitted or top-dose-only effect, or another doubt; inactive = no such curve, though single readings can be large or run the other way; cell line not stated here;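 also: phosphodiesterase inhibitor Ro 20-1724 added with compounds to block cAMP breakdown; potency is read from the fitted curve at half-maximal effect; nearly all actives have a fitted effect of over 60% in size; about a fifth of the inactives were tested at one dose only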
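Cells stably selected in G418 were plated at 2000/well, grown 16-24 hr, then given compounds in DMSO with the PDE inhibitor […] (300 uM solution added) for 30 min at 37C; cAMP was read by HTRF.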
D2 agonist: human D2 receptor agonism in beta-arrestin assay. activation, % (concentration not given with the values). actives 0.084% (n = 360,000). P14416. DiscoveRx PathHunter D2 beta-arrestin, luminescence, 90 min; 100% = 57 uM dopamine signal. AID 624465; in the data active = activation above about 40%; inconclusive = about 15% to 40%; inactive = below about 15%; also: compound concentration not given in the record; the text of the record calls up to 30% inactive
Target sequence (P14416 whole entry, looked up): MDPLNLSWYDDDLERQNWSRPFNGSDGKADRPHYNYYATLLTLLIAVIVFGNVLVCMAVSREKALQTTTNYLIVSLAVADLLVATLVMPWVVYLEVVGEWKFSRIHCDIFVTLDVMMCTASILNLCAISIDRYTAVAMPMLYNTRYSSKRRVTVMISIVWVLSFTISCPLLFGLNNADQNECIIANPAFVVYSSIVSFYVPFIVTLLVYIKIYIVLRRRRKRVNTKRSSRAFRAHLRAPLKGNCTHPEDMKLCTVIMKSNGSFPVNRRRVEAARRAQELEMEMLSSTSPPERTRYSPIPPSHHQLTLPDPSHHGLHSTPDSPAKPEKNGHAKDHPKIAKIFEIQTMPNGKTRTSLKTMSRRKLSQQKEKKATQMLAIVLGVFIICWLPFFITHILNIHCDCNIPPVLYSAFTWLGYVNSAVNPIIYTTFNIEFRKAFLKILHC
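Agonist mode: compounds alone added to overnight-plated D2 PathHunter cells for 90 min at 37 C, with 57 uM final dopamine (EC100) defining full response. Beta-arrestin recruitment detected by chemiluminescent reagent, read after 1 h at ambient temperature.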
CtBP-E1A inh: inhibitors of CtBP/E1A interaction; actives 0.49% (n = 340,000); AlphaScreen GST-E1A/His-CtBP binding, 1536-well; stronger effect = lower value; control for the full effect not named in the record; activity change, % (no concentration beside the values); in the data active means activity change below about -65%; inconclusive means about -30% to -65%; inactive means above about -30%; also: % is scaled to controls: 0 for no effect and ±100 for the full control effect; compound concentration not given in the record
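Protein mix (5X: 125 nM each GST-E1A, His-CtBP) was incubated with pinned compound 2 h at 37 deg C in dark, in 50 mM Tris pH 8.0 buffer with 300 mM NaCl. Glutathione donor and nickel acceptor beads followed; AlphaScreen signal read after 1 h.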
D2 PAM: potentiates the human D2 dopamine receptor allosterically; potentiation, % (no concentration beside the values); DiscoveRx D2 beta-arrestin cells, luminescence, 90 min; 100% = 57 uM dopamine signal; actives 0.23% (n = 360,000); active = potentiation of 50% or more; inconclusive = 30% to 50%; inactive = 30% or less;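 also: compound concentration not given in the record; tested on top of an EC20 dose of dopamine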
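PathHunter beta-arrestin assay in DiscoveRx D2 cells. Compounds were added with an EC20 of dopamine (50 nM final) for 90 min at 37 deg C. Luminescence was read 1 h after detection reagent, with 57 uM dopamine as the EC100 control.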
gsp antag: gsp mutant antagonism. Potency, µM (highest dose often 76.9 µM), inactives show at the highest dose activity change, negative = inhibition, most hits filed as inhibitors. actives 0.4% (n = 340,000). gsp-mutant cells, cAMP HTRF, 30 min; control for the full effect not named in the record; active = falling curve of any shape with a large fitted effect; inconclusive = falling curve, mostly with a smaller effect; inactive = flat or rising curve; cell line not stated here;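 also: intracellular cAMP measured with PDE inhibitor Ro 20-1724 present during compound exposure; potency is read from the fitted curve at half-maximal effect; % is scaled to controls: 0 for no effect and ±100 for the full control effect; nearly all actives have a fitted effect of over 65% in size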
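Cells in G418 medium, seeded 16-24 h, 37C; buffer exchange to DPBS + 1 mM CaCl2, 0.5 mM MgCl2, 0.05% BSA; cpds in DMSO + […] (300 uM stock), 30 min 37C; HTRF cAMP detection.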
* hit, by the source's call; ? = inconclusive; / = no result given; [ ] = dose if it differs, or a comment.

SMILES	Six1-Eya2 blk	gsp ag	D2 agonist	CtBP-E1A inh	D2 PAM	gsp antag
CCOc1ccc(NS(=O)(=O)c2cccs2)cc1S(=O)(=O)N1CCCC1	5	9%	-2.7	0	-20	/
Cc1c(C(=O)O)sc(S(=O)(=O)N2CCN(C(=O)CC(C)c3ccccc3)CC2)c1C(=O)O (stereo not drawn)	-1	16%	-2.8	3	-12	20%
CCN(CC(=O)Nc1cc(Cl)ccc1C)C(=O)CCc1nc2ccccc2c(=O)[nH]1	6	?	-4.9	-18	-5	-4%
O=C1C2CCCCC2C(=O)N1c1ccc(NC2CCCCC2)c([N+](=O)[O-])c1 (stereo not drawn)	?	7%	-0.1	?	4	-23%
O=C(Cn1ccc2ccccc2c1=O)NCCC(=O)Nc1cccc(Cl)c1	-2	14%[15.4 µM]	-2.2	28	-13	-20%
c1ccc(OCCOCCSc2ncccn2)cc1	5	-12%	-6.2	16	5	5%
Cc1cc(Nc2cc(C)on2)n2ncnc2n1	-7	26%	-0.5	-1	0	12%
Cc1cccc(C)c1OCC(=O)Nc1ccc(S(=O)(=O)Nc2ccccn2)cc1	1	-1%	2.3	5	-6	2%
Cc1cc(Cl)ccc1C(O)c1ncc(-c2ccc(F)cc2)[nH]1 (stereo not drawn)	-14	/	-5.0	-25	-18	/
Cc1ccc(F)c([C@H]2C3C=CCC(c4ccccc4)C3C(=O)N2Cc2ccccc2)c1 (stereo partly drawn)	3	/	-3.2	-6	-10	-12%
Cc1cccc(C)c1OCCN1C(=O)NC(C)(c2ccccc2)C1=O (stereo not drawn)	1	-1%[15.4 µM]	-5.1	-3	-6	-14%
CCCCNC(=S)NNC(=O)c1csc2c1CCC(C)C2 (stereo not drawn)	0	-51%[inhibitor]	-6.3	-4	-20	-16%
O=C(O)C1CCCN1S(=O)(=O)c1ccc2ccccc2c1 (stereo not drawn)	17	1%	0.1	-9	-2	-13%
CN(Cc1ccccc1)C(=O)c1cccc(NC(=O)Cc2ccc(NC(=O)C3CCCN(C(=O)C4CC4)C3)cc2)c1 (stereo not drawn)	0	/	-0.6	0	2	-3%
CC(C)(C)c1ccc(O)c(O)c1	1	/	13	4	6	1%

Quoted from the listing.
In D2 PAM, O=C1C2CCCCC2C(=O)N1c1ccc(NC2CCCCC2)c([N+](=O)[O-])c1 (stereo not drawn) has the entry 4
In D2 agonist, CN(Cc1ccccc1)C(=O)c1cccc(NC(=O)Cc2ccc(NC(=O)C3CCCN(C(=O)C4CC4)C3)cc2)c1 (stereo not drawn) has the entry -0.6

Following part:
SMILES	Six1-Eya2 blk	gsp ag	D2 agonist	CtBP-E1A inh	D2 PAM	gsp antag
COc1ccc(-c2noc(CSc3ccc(C)cc3)n2)cc1	39	6%	-2.2	111	-1	-7%
Cn1c(=O)c2c(nc(-n3ccnc3)n2Cc2ccc([N+](=O)[O-])cc2)n(C)c1=O	-2	17%	-3.0	2	-14	-7%
NC(=O)CCS(=O)(=O)CCN1CCCCC1	7	-4%	-0.2	4	-3	4%[15.4 µM]
CCCOc1ccc(-c2c(C(=O)N/N=C/c3ccsc3)nnn2-c2nonc2N)cc1	0	9%	7.0	/	-6	5%
O=C(NCCN1C(=O)S/C(=C\c2ccc(F)cc2)C1=O)c1cccc(S(=O)(=O)N2CCOCC2)c1	-6	-14%	0.0	1	-16	?
COc1ccc(OC)c(NC(=O)CSc2ccc3nnc(-c4ccccn4)n3n2)c1	-8	29%	-2.1	-19	-8	-10%
c1ccc2c(CSc3nnc(-c4ccncc4)o3)cccc2c1	1	?	-0.9	3	0	2%
CCCCCOC(=O)C(C)c1c(C)[nH]c(=S)[nH]c1=O (stereo not drawn)	?	-26%	-3.1	?	-10	9%
O=C(/C=C/c1ccc(S(=O)(=O)N2CCOCC2)cc1)NC(=S)NCCCn1ccnc1	-6	-19%	7.5	1	-10	-3%
Cn1c(=S)[nH]c2c(c1=O)C(C)(C)Cc1ccccc1-2	8	92%[15.4 µM]	-6.5	-15	-7	-2%
O=c1c(F)cn(C2CCCO2)c(=O)n1Cc1ccccc1Cl (stereo not drawn)	4	18%	4.4	8	10	5%
CSCCCN1CCC(n2nccc2NC(=O)CCCc2ccccc2)CC1	-13	-17%	-1.9	-5	-28	4%
CC1C=CCC2C(=O)N(c3cccc(C(=O)NCCc4ccccc4)c3)C(=O)C12 (stereo not drawn)	-11	-10%	-0.3	-3	-7	2%
CC(Oc1ccc2ccc(=O)oc2c1)C(=O)NC1CCN(Cc2ccccc2)CC1 (stereo not drawn)	2	19%	-4.8	/	-19	4%
CC1CC(=O)Nc2ccccc2N1C(=O)CSc1nnnn1C(C)C (stereo not drawn)	-3	-41%[inhibitor]	-0.5	-1	0	20%

The last 2 compounds of the part before lead into the next.
SMILES	Six1-Eya2 blk	gsp ag	D2 agonist	CtBP-E1A inh	D2 PAM	gsp antag
CC(Oc1ccc2ccc(=O)oc2c1)C(=O)NC1CCN(Cc2ccccc2)CC1 (stereo not drawn)	2	19%	-4.8	/	-19	4%
CC1CC(=O)Nc2ccccc2N1C(=O)CSc1nnnn1C(C)C (stereo not drawn)	-3	-41%[inhibitor]	-0.5	-1	0	20%
CCN(Cc1nc(-c2ccc(C)cc2)no1)C(=O)c1ccco1	-2	-15%[15.4 µM]	-2.2	6	-6	-1%
Cc1ccc(Nc2c(-c3ccco3)nc3ccccn23)cc1	-6	1%	14	-5	17	-16%
CCOC(=O)c1c(N)sn(-c2ccccc2C)c1=S	-13	2%	-4.0	-5	-4	1%
Cc1cccc(NC(=O)CCC(=O)OCc2ccc(Br)cc2)c1	0	-6%	-1.1	0	0	0%
CN(C)CCCNC(=O)/C(=C\c1ccc(-c2cccc([N+](=O)[O-])c2)o1)NC(=O)c1ccccc1	-6	-15%[15.4 µM]	0.2	-7	-10	-16%
Cc1cc(NC(=O)C(C)SCC(=O)Nc2nnc(CC(C)C)s2)no1 (stereo not drawn)	1	-3%	0.1	4	-2	4%
O=C(NCc1ccncc1)C(=O)N/N=C/c1ccccc1OCc1ccccc1	-4	-6%[15.4 µM]	1.5	-6	-4	/
Nc1nonc1-c1noc(N2CCCCC2)n1	14	-17%	2.8	-1	-5	-6%
Cc1ccc(-c2nnc(SCC(=O)Nc3ccc4c(c3)oc3ccccc34)n2C)c(Cl)c1	0	-13%	-2.4	-2	-12	9%
CCn1c(C)cc(/C=C2/SC(=O)N(C(C)C(=O)OC)C2=O)c1C (stereo not drawn)	?	?	-4.9	-10	-9	-10%
COCCNC(=O)c1ccc2c(c1)nc(C)n2-c1cccc(Cl)c1	1	16%	-3.8	4	0	-10%
O=C(Nc1ccc2c(c1)CCC2)c1cccc(F)c1	2	-26%	-1.1	-1	-36	0%
CCOc1ccc(-c2c(C(=O)N/N=C/c3ccc(O)cc3)nnn2-c2nonc2N)cc1	3	4%[15.4 µM]	-0.3	0	-5	-15%
COc1ccc(C(=O)N2CCOC2CNC(=O)C(=O)NCc2ccccc2)cc1 (stereo not drawn)	-23	-84%[inhibitor]	-2.4	-21	-21	/
Cc1cc(Nc2cnc3ccccc3n2)n(-c2ccccc2)n1	-3	5%	-0.6	-5	-3	-19%

2 entries from above, with bars between the fields.
compound | Six1-Eya2 blk | gsp ag | D2 agonist | CtBP-E1A inh | D2 PAM | gsp antag
O=C(NCc1ccncc1)C(=O)N/N=C/c1ccccc1OCc1ccccc1 | -4 | -6%[15.4 µM] | 1.5 | -6 | -4 | /
Nc1nonc1-c1noc(N2CCCCC2)n1 | 14 | -17% | 2.8 | -1 | -5 | -6%

Part of the list above in a different format.
SMILES,Six1-Eya2 blk,gsp ag,D2 agonist,CtBP-E1A inh,D2 PAM,gsp antag
Cc1cc(NC(=O)C(C)SCC(=O)Nc2nnc(CC(C)C)s2)no1 (stereo not drawn),1,-3%,0.1,4,-2,4%
O=C(NCc1ccncc1)C(=O)N/N=C/c1ccccc1OCc1ccccc1,-4,-6%[15.4 µM],1.5,-6,-4,/
Nc1nonc1-c1noc(N2CCCCC2)n1,14,-17%,2.8,-1,-5,-6%
Cc1ccc(-c2nnc(SCC(=O)Nc3ccc4c(c3)oc3ccccc34)n2C)c(Cl)c1,0,-13%,-2.4,-2,-12,9%
CCn1c(C)cc(/C=C2/SC(=O)N(C(C)C(=O)OC)C2=O)c1C (stereo not drawn),?,?,-4.9,-10,-9,-10%
COCCNC(=O)c1ccc2c(c1)nc(C)n2-c1cccc(Cl)c1,1,16%,-3.8,4,0,-10%

Following part
SMILES	Six1-Eya2 blk	gsp ag	D2 agonist	CtBP-E1A inh	D2 PAM	gsp antag
COCCNC(=O)C1CCCN(Cc2ccc(C#N)cc2)CC1 (stereo not drawn)	18	/	-1.4	27	-5	/
CSc1ccc(NC(=O)Nc2ccc(C(=O)NCC(=O)O)cc2)cc1	-11	?	3.8	/	-14	0%
Cc1cc2cc(CN(Cc3ccc4c(c3)OCO4)C(=O)c3cnccn3)c3nnnn3c2cc1C	-3	?	-5.5	-3	-12	-11%
O=C(Cn1nc(C(F)F)cc1C(F)F)NNC(=S)Nc1ccc([N+](=O)[O-])cc1	-1	4%	-4.1	4	-12	-10%
COc1ccccc1NC(=O)Cc1csc(NC(=O)c2ccccc2)n1	-2	3%	-2.6	-10	-5	-15%
C/C(=N\O)C(C)(C)Nc1ccccc1F	-18	-21%[15.4 µM]	-0.5	-6	-24	3%
CCCN1CCC(NC(=O)Nc2ccc([N+](=O)[O-])cc2)CC1	-4	1%	2.5	-1	-10	8%
NC(=S)Nc1cc(Cl)ccc1Cl	-1	-31%[inhibitor]	-3.3	4	-4	4%
O=C(Nc1c(Br)cc2c(c1Br)Cc1cc([N+](=O)[O-])ccc1-2)C(Cl)Cl	-6	?	9.4	1	-24	-9%
Cc1cc(C)c2oc(=O)cc(CN3CCCCC3)c2c1	-4	?	2.6	0	-15	-2%
O=C(CN1CCN(C(=O)C2CCCO2)CC1)Nc1ccc(Cl)c(Cl)c1 (stereo not drawn)	3	34%	0.1	4	14	12%
Cc1cc(C)c(NC(=O)CNC(=O)COC(=O)/C=C/c2cccs2)c(C)c1	0	1%	0.9	12	-15	0%
